HTT prom inh – inhibits huntingtin promoter activity | 48,000 compounds, 0.93% hits | AID 1508623 | HEK293 HTT promoter firefly luciferase reporter (activity 0% = vehicle and -100% = no light), 24 h | Potency, µM (top dose mostly 57.5 µM), for the others: top-dose activity change, negative = inhibition, hits mostly inhibitors; active means well fitted inhibition curve with a large enough effect; inconclusive means small, poorly fitted or top-dose-only effect; inactive means no such curve, though single readings can be large or run the other way; further: nearly all actives have a fitted effect of over 50% in size
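Quantitative HTS used concentration series of up to 57.5 uM final on HEK293 luciferase reporter cells, 24 h at 37 degrees C. Readout was Dual-Glo firefly luminescence.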
PMP22 txn prim – modulators of PMP22 gene transcription in S16 Schwann cells; S16 Pmp22-F2sN Schwann cells (luciferase reporters placed in the Pmp22 gene), FLuc/NLuc coincidence luminescence, 24 h; Potency, µM (series often up to 57.5 µM), inactives show at the top dose activity change, negative = inhibition, usual class: inhibitors; 43,000 compounds, 2% hits; AID 1508649; active = clear falling dose curves in both reporters; inconclusive = both reporters move, but less clearly or upward; inactive = either reporter flat; the % is the NLuc reporter signal; further: on the % scale 0 is the no-effect control and ±100 the full control effect; some results filed as inactive show a strong effect at the top dose
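Rat S16 Pmp22-F2sN cells, 500-1,000/well in phenol red-free DMEM + 10% FBS, compound-treated 24 h (37C, 5% CO2). Luminescence: FLuc read, Stop&Glo added, NLuc read.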
* hit, by the source's call; ? = inconclusive; . = not tested or not shown; & = joins results of further samples; [ ] = dose if it differs, or a comment. Potency means the concentration at half of the fitted maximal effect.

Values run as follows: HTT prom inh	PMP22 txn prim
(1) COc1ccc(-n2c(SCC(=O)NCc3ccc(F)cc3)nc3c([nH]c4ccccc43)c2=O)cc1
    -23%	?
(2) Cc1cc(=O)n(CC(=O)NC(C)c2ccccc2)c2c1c(C)nn2-c1cccc(F)c1 (configuration not stated)
    -9%	39%
(3) Cc1ccc2oc(=O)c3cnn(CC(=O)Nc4ccc(Br)cc4C)c3c2c1
    2%	-3%
(4) CCCCOC(=O)c1ccc(Nc2nc3ccc(C)cc3n3cnnc23)cc1
    -12%	7%
(5) CC1CCN(C(=O)CN2CCSc3ccccc32)CC1
    -7%	-23%
(6) CC(=O)Nc1cc(-c2ccccc2)nn1Cc1cccc(Cl)c1
    -15%	15%
(7) O=S(=O)(Nc1c(F)cccc1F)c1ccc2c(c1)OCCO2
    -4%	17%
(8) Cc1nnc(N2CCC(C(=O)Nc3ccc(F)cc3)CC2)c2nn(-c3ccc(Cl)cc3)c(C)c12
    ?	?
(9) COc1ccc(-c2[nH]c(-c3ccc(C)cc3)nc2SCC(=O)NCC2CCCO2)cc1 (configuration not stated)
    -16%	?
(10) CCOC(=O)c1nnc2c(-c3ccc(F)cc3)c(C)nn2c1N
    -4%	-7%
(11) CC(C)c1ccc(S(=O)(=O)Nc2ccc(O)c(Sc3nc4ccccc4s3)c2)cc1
    -26%	?
(12) COc1ccc(OC)c(CCNc2nccn(-c3ccc(C)c(C)c3)c2=O)c1
    -41%	?
(13) COc1ccc(C(=O)NCCn2cc(SCC(=O)Nc3ccc4c(c3)OCCO4)c3ccccc32)cc1
    ?	?
(14) COc1ccc(NC(=O)CSc2nc(-c3cccs3)cc(C(F)(F)F)c2C#N)cc1
    -5%	-4%
(15) Cc1ccc(Nc2c(-c3ccc(N4CCOCC4)cc3)nc3ncccn23)cc1C
    -29%	?
(16) CCCCN(CCCC)CCC(O)c1cc2c(Cl)cc(Cl)cc2c2cc(C(F)(F)F)ccc12 (configuration not stated)
    6%&-15%	.
(17) CCOC(=O)c1c(NC(C)=O)c2c3c(sc2n1Cc1nc(-c2cccc(Cl)c2)oc1C)CCCC3
    -12%	-1%
(18) Cc1ccc(-n2c3nc(=O)[nH]c(=O)c-3cc3c(C)nn(-c4ccccc4)c32)cc1C
    -14%	-7%
(19) CCc1ccc(CNC(=O)CSc2c3c(nc4ccc(Cl)cc24)CCCC3)cc1
    -18%	6.2µM*
(20) O=C(Nc1ccc2oc(-c3cccnc3)nc2c1)c1ccc(-c2ccccc2)o1
    ?	-32%
(21) COc1cc(OC)cc(-n2c(=O)c3sccc3n(Cc3c(C)cc(C)cc3C)c2=O)c1
    -26%	12%
(22) Cc1ccc2oc(=O)c3cnn(CC(=O)N4CCN(c5cccc(Cl)c5)CC4)c3c2c1
    6%	4%
(23) CCC(C)NC(=O)c1ccc(CNS(=O)(=O)c2ccc3c(c2)C(C)(C)C(=O)N3C)cc1 (configuration not stated)
    0%	8%
(24) Cc1ccc(Nc2nc(N)nc(N)c2S(=O)(=O)c2ccccc2)cc1
    -27%	?
(25) CC(C)c1ccc(CN(C(=O)c2cc3ccccc3oc2=O)C2CCS(=O)(=O)C2)cc1 (configuration not stated)
    -4%	-7%
(26) COc1ccc2nc(N(Cc3cccnc3)C(=O)C3CCCCC3)sc2c1
    -24%	-62%
(27) CCC(Sc1nnc2c3ccccc3n(CC)c2n1)C(=O)Nc1ccc(NC(C)=O)cc1 (configuration not stated)
    -9%	?
(28) COc1cccc(-c2nc(SC(C(C)=O)C(=O)N(C)C)c3c(=O)n(C)c(=O)n(C)c3n2)c1 (configuration not stated)
    -8%	15%
(29) Cc1ccc(C(=O)c2c(N)c(-c3nc(-c4ccc5c(c4)OCO5)cs3)c3ccccn23)cc1C
    -20%	-90%
(30) Cc1cc(C)cc(NC(=O)CCc2nnc3n(C)c(=O)c4sccc4n23)c1
    -1%	-12%
(31) COc1ccc(C(=O)Nc2nnc(SCc3cc(=O)c4cccc(F)c4[nH]3)s2)cc1
    16%	-35%
(32) CCOc1ccc(C(=O)Nc2ccc(S(=O)(=O)N(Cc3ccccc3)c3ccccc3)cc2)cc1
    1.8µM*	-46%
(33) CCc1cccc(C)c1Nc1c(-c2ccc(F)cc2)nc2sccn12
    -23%	-30%
(34) COc1ccccc1CNC(=O)CCC1N=C2c3ccccc3N=C(SCC(=O)NCCc3ccccc3)N2C1=O (configuration not stated)
    -12%	?
(35) Cc1nc2cc(-c3cccc(F)c3)nn2c(C)c1CCC(=O)NCCc1ccccc1
    ?	-28%
(36) COC(=O)c1ccc([C@H]2Nc3ccc(S(=O)(=O)Nc4ccc(F)cc4)cc3[C@H]3C=CC[C@H]32)cc1
    -19%	-39%
(37) CCOc1ccc(N2CC(c3nc4ccccc4n3CCCOc3ccccc3)CC2=O)cc1 (configuration not stated)
    ?	?
(38) COc1ccc(NC(=O)CCc2c(C)nc3c(-c4ccc(F)cc4)c(C)nn3c2C)c(OC)c1
    -12%	-14%
(39) Cc1ccc(CNC(=O)CCCCCn2c(=O)c3sccc3n(CC(=O)Nc3c(C)cc(C)cc3C)c2=O)cc1
    -26%	?
(40) COc1ccccc1NC(=O)Cn1c(=O)n(-c2cccc(Cl)c2)c(=O)c2sc3ccccc3c21
    -13%	10µM*
(41) O=C(COc1ccccc1Cl)Nc1ccc(Cl)c(-c2nc3ccccc3o2)c1
    -16%	?
(42) O=C(Nc1ccccc1F)c1nc(S(=O)(=O)Cc2ccccc2F)ncc1Cl
    ?	?
(43) COc1cc2c(c(OC)c1OC)-c1ccc(OC)c(=O)cc1[C@@H](NC(C)=O)CC2
    -25%&-31%	.
(44) CC(=O)Nc1cccc(NC(=O)CN2C(=O)CCSc3ccccc32)c1
    -1%	1%
(45) Cc1ccccc1CN1CCc2nc(Nc3ccc4c(c3)OCCO4)ncc2C1
    -26%	?
(46) Cc1ccc(C)c(N2CCN(CCCNC(=O)c3cnn(-c4cccc(Cl)c4)c3C3CCN(C(=O)OC(C)(C)C)CC3)CC2)c1
    ?	?
(47) COc1cc2c(cc1OC)C(COc1ccc(F)cc1)N(C(=O)c1ccccc1F)CC2 (configuration not stated)
    ?	0%
(48) O=C(Cn1c(=O)n(Cc2ccco2)c(=O)c2oc3ccccc3c21)Nc1ccc(F)cc1F
    -21%	?
(49) Cc1ccc(-n2nc3c(N4CCC(C(=O)NC(C)C)CC4)nnc(C)c3c2C)cc1
    -6%	-21%
(50) Cc1ccc2c(c1)cc1c(=O)n(CC(=O)NC3CCCCC3)nc(C)n12
    -2%	-8%
(51) CC(C)c1ccc(NC(=O)CSc2nc3ccccc3nc2Cc2ccccc2)cc1
    -9%	?
(52) Cc1ccccc1Cn1c(SCc2ccc(C(=O)NCCc3ccccc3)cc2)nc2ccncc21
    -20%	?
(53) CCN1CCN(Cc2c(O)ccc3c(=O)c(Oc4ccccc4C(C)C)c(C(F)(F)F)oc23)CC1
    -19%	-18%
(54) Cn1nnnc1SCCCNCc1cccc(OCc2ccccc2)c1
    -15%	20µM*
(55) CCN(CC)c1ccc(NC(=O)CN2CCN(CC(=O)Nc3ccccc3OC)CC2)cc1
    ?	?
(56) COc1ccc(S(=O)(=O)N2CCC(C(=O)Nc3ccc(Oc4ccccc4)cc3)CC2)cc1
    ?	-15%
(57) CCCSCCCNC(=O)C1CCN(C(=O)c2cnn(-c3ccccc3)c2-n2cccc2)CC1
    ?	?
(58) CCc1nnc2c(Nc3ccc(N(CC)CC)cc3C)nc3ccccc3n12
    12%	-31%
(59) CC(C)N(Cc1ccccc1)C(=O)C1CCCN(c2ncnc3onc(-c4ccc(F)cc4)c23)C1 (configuration not stated)
    ?	?
(60) COc1ccc2c(c1)CC(C(=O)Nc1ccc(OC)cc1OC)CO2 (configuration not stated)
    -6%	-15%

Complete entries, quoted from the list. Order of values: HTT prom inh, PMP22 txn prim
`COc1ccc(NC(=O)CSc2nc(-c3cccs3)cc(C(F)(F)F)c2C#N)cc1` reads -5%, -4%
`Cc1ccc(C(=O)c2c(N)c(-c3nc(-c4ccc5c(c4)OCO5)cs3)c3ccccn23)cc1C` reads -20%, -90%
`O=C(Cn1c(=O)n(Cc2ccco2)c(=O)c2oc3ccccc3c21)Nc1ccc(F)cc1F` reads -21%, ?
`Cc1nnc(N2CCC(C(=O)Nc3ccc(F)cc3)CC2)c2nn(-c3ccc(Cl)cc3)c(C)c12` reads ?, ?

Additional results
Values run as follows: HTT prom inh	PMP22 txn prim
(61) CCC(CN)=C(c1ccccc1)c1ccccc1
    -14%	.
(62) Cc1ccccc1N1CCN(S(=O)(=O)c2nnc(NC(=O)c3ccccc3)s2)CC1
    ?	-34%
(63) O=C(Nc1ccc(S(=O)(=O)Nc2ncccn2)cc1)c1cc(=O)c2ccccc2o1
    -12%	-19%
(64) CCc1ccccc1NC(=O)C(CC)Oc1ccccc1-c1nnc(-c2ccccc2)o1 (configuration not stated)
    -6%	?
(65) CCCC1OC2C[C@@H]3[C@H]4CCC5=CC(=O)C=C[C@]5(C)[C@H]4C(O)C[C@]3(C)[C@]2(C(=O)CO)O1 (some centres not stated)
    -6%	.
(66) CCOC(=O)C1=C(CN(CC)Cc2ccccc2)NC(=O)NC1c1ccc(Cl)cc1 (configuration not stated)
    ?	?
(67) CCc1ccc(NC(=O)CCS(=O)(=O)c2cc3c(cc2Cl)NC(=O)CO3)cc1
    -6%	-8%
(68) CC(C)Oc1ccc(C(=O)Nc2ccc(-c3nc4ccccc4s3)cc2)cc1
    7%	8%
(69) CCc1ccccc1NC(=O)Cn1nc(CC)n2c(cc3sccc32)c1=O
    -1%	-42%
(70) COc1cccc(-c2nc(SCC(=O)NC3CCCC3)c(-c3ccc(F)cc3)[nH]2)c1
    ?	-2%
(71) Cc1cc(C)cc(Nc2cc(C)nc3nncn23)c1
    10%	-7%
(72) COc1cc(Cl)c(NC(=O)CC(C)S(=O)(=O)c2cc3c(cc2C)NC(=O)CO3)c(OC)c1 (configuration not stated)
    0%	-25%
(73) COc1cc(Br)c(C2CC(=O)Nc3cc4c(cc32)OCCO4)cc1OC (configuration not stated)
    -35%	?
(74) C[C@@H](C1=C(CCN(C)C)Cc2ccccc21)c1ccccn1
    1%	.
(75) COC(=O)c1ccccc1NS(=O)(=O)c1cc2c3c(c1)CC(=O)N3CCC2
    -22%	-28%
(76) COc1ccc(C(=O)Nc2cc3c(cc2C(=O)c2ccccc2Cl)OCCO3)cc1
    -12%	-9%
(77) CCOC(=O)c1ccccc1NC(=O)N1CCCn2nc(C)cc21
    -20%	-16%
(78) COc1cc(OC)c(C2C=C(C(=O)O)Nc3ncnn32)cc1OC (configuration not stated)
    -6%	-10%
(79) COC(=O)c1ccccc1NC(=O)CSc1nc(=O)cc(N)n1-c1ccccc1
    -16%	-10%
(80) CC(=O)N1CCc2cc(S(=O)(=O)C(C)CC(=O)Nc3ccc(Br)c(C)c3)ccc21 (configuration not stated)
    -25%	-81%

Part of the list above, reformatted:
item	SMILES	HTT prom inh	PMP22 txn prim
64	CCc1ccccc1NC(=O)C(CC)Oc1ccccc1-c1nnc(-c2ccccc2)o1 (configuration not stated)	-6%	?
65	CCCC1OC2C[C@@H]3[C@H]4CCC5=CC(=O)C=C[C@]5(C)[C@H]4C(O)C[C@]3(C)[C@]2(C(=O)CO)O1 (some centres not stated)	-6%	.
66	CCOC(=O)C1=C(CN(CC)Cc2ccccc2)NC(=O)NC1c1ccc(Cl)cc1 (configuration not stated)	?	?
67	CCc1ccc(NC(=O)CCS(=O)(=O)c2cc3c(cc2Cl)NC(=O)CO3)cc1	-6%	-8%

Additional records follow.
Values run as follows: HTT prom inh	PMP22 txn prim
(81) CCCCCn1c(=O)[nH]c2cc(C(=O)N3CCN(c4ccccc4)CC3)ccc2c1=O
    -9%	?
(82) Cc1cc(Sc2ccc(Cl)cc2)nc2ccccc12
    30%	-6%
(83) CCCCOc1ccc(CN2C(=O)C(=O)c3cc(C)ccc32)cc1OC
    -30%	8.8µM*
(84) CCN(CC)C(=O)C1=C(C)Nc2nc3ccccc3n2C1c1ccccc1F (configuration not stated)
    -4%	2%
(85) CCN1CCN(C(=O)c2ccc3c(c2)N(Cc2ccc(Cl)cc2)C(=O)c2ccccc2S3=O)CC1 (configuration not stated)
    -20%	?
(86) COc1ccc(NC(=O)CN2C(=O)CC(c3ccc(C)c(C)c3)=Nc3ccccc32)cc1OC
    28%	-11%
(87) COc1ccccc1C(=O)Nc1c(C(=O)c2ccccc2)oc2ccccc12
    -9%	12%
(88) CCN1C(=O)c2ccccc2S(=O)c2ccc(C(=O)N3CCN(c4cc(Cl)ccc4C)CC3)cc21 (configuration not stated)
    ?	?
(89) O=C(CN1C(=O)COc2ccc(S(=O)(=O)N3CCCC3)cc21)N1CCN(c2cccc(C(F)(F)F)c2)CC1
    ?	?
(90) O=C(Nc1cc(-c2ccccc2)sc1C(=O)O)c1cccc(F)c1
    -7%	3%
(91) COc1ccc(NC(=O)CCCSc2nc(-c3ccco3)cc(C(F)(F)F)n2)cc1OC
    -12%[11.5 µM]	1%
(92) O=C(CSc1nc2c(c(=O)[nH]1)CCCC2)Nc1cccc(O)c1
    1%	-8%
(93) CCOc1ccccc1NC(=O)C(=O)NCCc1sc(-c2cccc(F)c2)nc1C
    -12%	?
(94) COc1cc(C2c3c(oc4ccc(F)cc4c3=O)C(=O)N2Cc2ccc3c(c2)OCO3)ccc1O (configuration not stated)
    1%	-10%

Screens: PubChem, National Center for Advancing Translational Sciences (NCATS)

The list is partial. The share of hits here may be higher or lower than overall.
